CHT inh: inhibits the human high affinity choline transporter; CHT-expressing cells, membrane potential dye, choline response; hits give low values; AID 488975; hit rate 0.86% among 310,000; B-score at 10 µM;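 active = B-score over 3 SD under the library average, and starting fluorescence ratio not unusually high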;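 also: choline stimulus applied at its EC90 after an EC20 pre-addition; B-score computed on integrated fluorescence ratio after choline addition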
Target sequence (Q9GZV3 whole entry, looked up): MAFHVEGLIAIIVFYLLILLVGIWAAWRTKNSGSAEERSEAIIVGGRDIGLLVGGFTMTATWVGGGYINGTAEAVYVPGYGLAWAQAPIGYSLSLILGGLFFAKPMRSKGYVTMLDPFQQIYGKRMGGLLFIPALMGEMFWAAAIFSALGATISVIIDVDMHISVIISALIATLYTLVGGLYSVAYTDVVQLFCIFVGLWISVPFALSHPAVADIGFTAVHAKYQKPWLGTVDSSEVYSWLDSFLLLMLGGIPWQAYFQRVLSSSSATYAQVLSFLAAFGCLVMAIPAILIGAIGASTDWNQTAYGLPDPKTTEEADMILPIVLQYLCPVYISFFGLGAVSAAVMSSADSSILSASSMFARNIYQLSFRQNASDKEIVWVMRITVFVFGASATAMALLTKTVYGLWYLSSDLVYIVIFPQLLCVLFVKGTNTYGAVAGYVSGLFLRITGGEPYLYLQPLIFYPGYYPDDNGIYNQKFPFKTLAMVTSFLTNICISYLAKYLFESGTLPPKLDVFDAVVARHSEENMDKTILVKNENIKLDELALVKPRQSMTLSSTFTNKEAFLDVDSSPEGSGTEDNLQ
Calls only; i = inactive.

SMILES	CHT inh
CN(Cc1ccccc1)C(=O)Cn1c(=O)oc2cc(S(=O)(=O)NCc3ccccc3)ccc21	i
Cc1cc(C)c(C)c(OCC(=O)N2CCN(c3ccccn3)CC2)c1	i
COc1ccc(Cl)cc1NC(=S)Nc1ccc(Cl)cn1	i
Cc1cccc(C)c1NC(=O)CN(C)C(=O)c1cccc(S(=O)(=O)N2CCN(c3ccc(F)cc3)CC2)c1	i
CCOc1ccc(C(=O)c2ccc(OCC)c(N)c2)cc1N	i
COc1ccc(-c2oc3ccccc3c2C(=O)Oc2ccccc2)cc1	i
O=C(c1ccc(Cn2c(=O)[nH]c3ccccc3c2=O)cc1)N1CCN(c2ccc(Cl)cc2)CC1	i
COC(=O)C1OC2(OC1C(=O)OC)c1ccccc1-c1ccccc12 (centres undefined)	i
CCOCCn1cnc2sc(C(=O)Nc3nc(C)c(C(=O)OCC)s3)c(C)c2c1=O	i
CC1CCN(c2nc3ccc(C(=O)N4CCN(Cc5ccccc5)CC4)cc3s2)CC1	i
CN(CC(=O)Nc1ccccc1N1CCOCC1)S(=O)(=O)c1ccc(Cl)cc1	i
O=C1CCCS(=O)(=O)c2ccccc21	i
CCC(C(=O)NC1CCCC1)N(Cc1ccco1)C(=O)Cn1nnc(-c2ccc(C)cc2)n1 (centres undefined)	i
Cc1c(Cl)cccc1-c1ccc(/C=N/n2cnnc2)o1	i
Cc1cc(=O)c(C(=O)c2ccccc2)c(C)o1	i

Part of the list above, set out differently:
CHT inh | Compound
i | CC1CCN(c2nc3ccc(C(=O)N4CCN(Cc5ccccc5)CC4)cc3s2)CC1
i | CN(CC(=O)Nc1ccccc1N1CCOCC1)S(=O)(=O)c1ccc(Cl)cc1
i | O=C1CCCS(=O)(=O)c2ccccc21
i | CCC(C(=O)NC1CCCC1)N(Cc1ccco1)C(=O)Cn1nnc(-c2ccc(C)cc2)n1 (centres undefined)
i | Cc1c(Cl)cccc1-c1ccc(/C=N/n2cnnc2)o1
i | Cc1cc(=O)c(C(=O)c2ccccc2)c(C)o1

The list goes on.
SMILES	CHT inh
CCn1cc(/C=N\NC(=O)Cc2ccc(Cl)cc2)cn1	i
CSc1ncccc1C(=O)OCc1ccccc1Cl	i
CC(=O)Oc1ccc(-c2nc3c(C)cccc3c(=O)o2)cc1	i
O=C(Nc1cccnc1)c1cc(S(=O)(=O)N2CCOCC2)ccc1Br	i
O=c1[nH]nc(SCCS(=O)(=O)c2ccc(F)cc2)n1-c1ccccc1	i
COc1cc2c(cc1OC)CN(C(=O)c1ccc(S(=O)(=O)N3CCCC3)cc1)CC2	i
CC1(C)Cc2nc(NCCCO)c(C#N)cc2CO1	i
CSc1nc(NCCOCCO)c2sc3nc(-c4ccco4)c4c(c3c2n1)CCC4	i
Cc1cccc(OCCCC(=O)NC(C)C)c1	i
Cc1ccc(C(=O)c2ccccc2C(=O)OCC(=O)NCC2CCCO2)cc1 (centres undefined)	i
COc1cccc(NC(=O)CCSc2nnc3scc(-c4ccccc4)n23)c1	i
Cc1cc(C(=O)Nc2c(F)cc(F)cc2Br)no1	i
CCCc1nnc(NC(=O)c2cccs2)s1	i
COc1cccc(C2NC(=S)NC(C)=C2C(=O)c2ccccc2)c1OC (centres undefined)	i
Cc1ccc(CNC(=O)CSc2nnnn2C)cc1	i

New compounds follow
SMILES	CHT inh
O=C(O)C1CCCN1C(=O)OCC1c2ccccc2-c2ccccc21 (centres undefined)	i
CS(=O)(=O)c1ccc(Cl)c(NC(=O)COC(=O)c2ccc(F)cc2Cl)c1	i
Cc1cc(N)ccc1-n1nc2ccccc2n1	i
COc1ccccc1NC(=O)C(=O)NNC(=O)c1ccco1	i
Cn1c(=O)[nH]c(=O)c2c1nc1n2CCCN1CCc1ccccc1	i
Brc1cc(Br)cc(CN2CCSCC2)c1	i
CC1=CC(=O)C=CC1(C)C(Cl)Cl (centres undefined)	i
COc1ccc(OC)c(NC(=O)c2cccc(N3C(=O)C4C5CCC(C5)C4C3=O)c2)c1 (centres undefined)	i
CCc1nnc(NCn2nc(C)cc2C)s1	i
O=[N+]([O-])c1ccc(S(=O)(=O)Nc2cccc(-c3ccc(N4CCOCC4)nn3)c2)cc1	i
CCOc1ccc(N(CC(=O)NC2CCCC2)C(=O)CSc2nnc(COc3ccccc3)o2)cc1	i
COCCN(CC(=O)NC1CCCCC1)C(=O)CCCC(=O)Nc1ccccn1	i
COc1ccc(-c2nc(CS(=O)(=O)CC(=O)NCc3ccc(F)cc3)c(C)o2)cc1	i
Cc1ccc(C(=O)NCc2ccccc2)c(F)c1F	i
COc1cc2[nH]c(C(=O)N3CCC(Cc4ccccc4)CC3)cc2c(OC)c1OC	i

Additional structures follow.
SMILES	CHT inh
CCOC(=O)N1CCN(Cc2nc3cc(NC(=O)C(C)C)ccc3n2C)CC1	i
Cc1cc(C(=O)NNC(=S)NC2CCCCC2)cs1	i
Cc1ccc(C(C(=O)NC2CCCCC2)N(C(=O)c2csnn2)C2CCCC2)o1 (centres undefined)	i
CC(=O)c1ccc(N(CC(=O)NCC2CCCO2)C(=O)CCC(=O)Nc2cc(C)on2)cc1 (centres undefined)	i
O=C(COC(=O)/C=C/c1ccc(Br)o1)NCCCN1CCCC1=O	i
C[C@H]1CC[C@@]2(O[C@@H](CCO)C[C@H](O)[C@H]2O)O1	i
Cc1ccccc1CSCCNC(=O)Nc1ccccc1	i
Cc1ccc(Nc2nnc(SCC(=O)NC3CCCc4ccccc43)s2)cc1 (centres undefined)	i
O=C(c1ccc(Br)cc1)N(c1ccccn1)C1CCCCC1	i
COc1ccc(-c2csc(NC(=O)Nc3ccccc3)n2)cc1	i
COc1ccc(NC(=O)c2cccc(NC(=O)c3ccco3)c2)c(OC)c1	i
COCCn1nnnc1C(c1cc2ccc(OC)cc2[nH]c1=O)N1CCc2ccccc2C1 (centres undefined)	i
CC(C)CN(C)C(=O)CCc1nnc(Cc2cccc(C(F)(F)F)c2)o1	i
CCC(=O)Nc1cc2c(C)cc(=O)oc2cc1C	i
CCC1CCC(c2nnc(-c3ccc(Br)cc3)o2)CC1 (centres undefined)	i

Next section
SMILES	CHT inh
O=C(Cc1ccc([N+](=O)[O-])cc1)NC(C(=O)O)C(O)c1cccc([N+](=O)[O-])c1 (centres undefined)	i
CC1CCCCC1NC(=O)Cn1c(=O)oc2cc(S(=O)(=O)N3CCCC3)ccc21 (centres undefined)	i
COc1cc(NC(=O)c2ccc(Cl)cc2)c(Cl)cc1NC(=O)c1cccnc1	i
CN(C)S(=O)(=O)CC12CCC(CC1=O)C2(C)C (centres undefined)	i
COc1ccccc1C1N(c2ccc(Cl)cc2)C(=O)C2CCCN21 (centres undefined)	i
Cc1cccn2c(NC(=O)c3cccs3)c(-c3ccccc3)nc12	i
CC(=O)c1cc(-c2ccc(F)cc2)n(CCC(=O)Nc2cc(C)[nH]n2)c1C	i
CN1C(=O)C(C)(C)c2cc(S(=O)(=O)NCC3CCC(C(=O)NC4CCCCC4)CC3)ccc21 (centres undefined)	i
CCC(Oc1ccccc1)C(=O)N1CCN(c2ccccn2)CC1 (centres undefined)	i
O=C(NCCCO)C(=O)NCC1OCCCN1S(=O)(=O)c1cccs1 (centres undefined)	i
COc1ccc(CNC(=O)C2CCN(C(=O)c3sccc3-n3cccc3)CC2)cc1	i
COc1cc(CCN2C(=O)N[C@@H](c3cccc(C(F)(F)F)c3)C(C(C)=O)=C2C)cc(OC)c1OC	i
O=C(Cc1ccccc1F)Nc1ccccc1-c1ccccc1	i
CC(C)Cn1c(-c2ccc(Br)o2)n[nH]c1=S	i
COc1ccc(Cn2c(=S)[nH]c3ccccc3c2=O)cc1	i

Further compounds follow.
SMILES	CHT inh
O=C(c1c(F)cccc1F)N1CCN(c2cccc(C(F)(F)F)c2)CC1	i
CCCN(CCC)S(=O)(=O)c1ccc(NS(C)(=O)=O)cc1	i
Cc1onc(-c2ccccc2Cl)c1C(=O)N1CCN(c2ccccc2)CC1	i
Cc1ccc(C(=O)N2CCN(S(=O)(=O)c3ccccc3)CC2)cc1	i
Nc1nncn1C(=O)CCCOc1ccc(Cl)cc1Cl	i
O=C(c1ccc(CS(=O)c2ccc(F)cc2)o1)N1CCN(C2CCCCC2)CC1 (centres undefined)	i
COc1ccccc1/C=C/C=N/NC(=O)c1ccccn1	i
O=C(COC(=O)Cn1[nH]c(=O)c2ccccc2c1=O)Nc1c(Cl)cccc1C(F)(F)F	i
Oc1ccc(Br)cc1CNn1cnnc1	i
CC(C)(C)OC(=O)NCCCC[C@H](NC(=O)c1nc[nH]c1C(=O)N1CCN(C(=O)OC(C)(C)C)CC1)C(=O)OC(C)(C)C	i
O=C(NC1CCCCC1)C1CCN(S(=O)(=O)N2CCCCCC2)CC1	i
COc1ccc2oc(C(=O)NCC(Cc3ccccc3)N(C)C)c(C)c2c1 (centres undefined)	i
COc1ccc(NC(=S)c2ccc(N(C)C)cc2)cc1	i
CN1CCN(C(=O)CSc2nc3ccc(NC(=O)c4ccccc4F)cc3s2)CC1	i
CC1=C(C(=O)OC2CCCCC2)C(c2ccc(O)cc2)NC(=O)N1 (centres undefined)	i

More records
SMILES	CHT inh
COc1ccc(C(=O)Nc2ccc(C3=NNC(=O)CC3C)cc2NC(=O)c2ccc(OC)cc2)cc1 (centres undefined)	i
CC(CN1CCCCC1)C(=O)NN (centres undefined)	i
CCN(Cc1nc(-c2cccc(C)c2)no1)C(=O)c1ccc2c(c1)OCO2	i
OC1COC(O)C(O)C1O (centres undefined)	i
COc1cccc2sc(N(C)c3ccccc3)nc12	i
CCCCc1ccc(C2C3=C(CC(C)(C)CC3=O)NC3=C2C(=O)c2ccccc23)cc1 (centres undefined)	i
CN(CC(=O)NCCc1ccc(S(N)(=O)=O)cc1)Cc1ccc(Cl)cc1Cl	i
COc1ccccc1C(=O)Nc1ccc(C2=NNC(=O)CC2C)cc1 (centres undefined)	i
CC(=O)N(C(C)=O)c1ccc2nc(C)[nH]c(=O)c2c1	i
Nc1cccc(CN2CCCC2)c1	i
COc1ccc(NS(=O)(=O)c2ccc3c(c2)N(C(C)=O)CCS3)cc1	i
CCCCCCn1nc(C(=O)OCC(=O)c2c(N)n(C)c(=O)n(C)c2=O)c2ccccc2c1=O	i
Cc1cccc(-n2cnc(C(=O)NNC(=S)Nc3ccccc3)c2)n1	i
O=C(c1cn(-c2ccccc2)nc1-c1ccncc1)N1CCCCC1	i
COC(=O)c1ccc(NC(=O)CSc2ccccc2)cc1	i

(more compounds)
SMILES	CHT inh
CC1(C)C(c2ccccc2)=[N+]([O-])CN1O	i
COc1ccc(N(CC(=O)Nc2ccc(F)cc2)S(=O)(=O)c2ccccc2[N+](=O)[O-])c(OC)c1	i
COC(=O)Cn1c2ccc(C)cc2c2nc(C)sc21	i
CCc1ccc(/C=N/N2CCN(c3ccccn3)CC2)cc1	i
O=C(COc1ccccc1O)NNc1ccccc1	i
O=C1NC[C@H](Cc2ccccc2)N(CCc2cccc(F)c2)C1=O	i
CCOC(=O)c1c(NC(=O)COC(=O)c2ccccn2)sc(C(=O)N(C)C)c1C	i
COc1ccc(CCNC(=O)C2CC(=O)N(c3ccc(C(C)(C)C)cc3)C2)cc1OC (centres undefined)	i
CC1(C)CC2(CC(C)(C)N1)OC(=O)N1CCc3ccccc3C12C (centres undefined)	i
Cn1cc(CCC(=O)NCc2ccc3c(c2)OCO3)c2ccccc21	i
O=[N+]([O-])c1ccccc1CN1CCN(Cc2ccccn2)CC1	i
COc1ccccc1-c1csc(Cc2nnc3n2CCCCC3)n1	i
Cc1nc2cc(-c3ccccc3)nn2c(C)c1CCC(=O)N1CCN(c2ccccc2)CC1	i
COc1ccc(NC(=O)/C(C#N)=C/c2ccc(OCc3ccccc3F)cc2)cc1	i
CC12CCC(C(=O)N3CCc4ccccc43)(CC1=O)C2(C)C (centres undefined)	i

Further results.
SMILES	CHT inh
COc1cccc(C(C(=O)NCc2ccccc2)N(C(=O)c2csnn2)C2CC2)c1 (centres undefined)	i
CC(=O)NS(=O)(=O)c1ccc(NS(=O)(=O)c2ccc(F)cc2)cc1	i
CCOC(=O)CNC(=O)Nc1cccc(Cl)c1C	i
O=C(Cc1ccccc1)N1CCCC(c2nc(-c3cccs3)no2)C1 (centres undefined)	i
NS(=O)(=O)c1ccc(CCNS(=O)(=O)c2ccc3c(c2)NC(=O)CO3)cc1	i
COc1ccc(NC(=O)CN(C)C(=O)c2cn(-c3ccccc3)nc2-c2ccc(Cl)cc2)cc1	i
CC(=O)CC(=O)Nc1cccc2c1CCCC2	i
O=C(Nc1ccccc1)c1ccc(S(=O)(=O)NCc2cccnc2)cc1	i
CCOc1cc(C2C(C(C)=O)=C(C)Nc3ncnn32)ccc1O (centres undefined)	i
CCCCCSc1nc(N2CCOCC2)c2c(c1C#N)CC(C)(C)OC2	i
CCN1CN=C(NS(=O)(=O)c2ccc(C)cc2)NC1	i
Cc1ccc(NC(=O)COC(=O)CCc2ccc(S(=O)(=O)N3CCOCC3)cc2)cc1F	i
Oc1ccc(-c2csc(Nc3ccccn3)n2)cc1O	i
CCN(CC)C(=O)CSc1nc2ccccc2o1	i
N#C/C(=C\c1cccc(O)c1)C(=O)Nc1ccc2c(c1)OCCO2	i

The list continues.
SMILES	CHT inh
Cc1ccc(-c2noc(CNC(=O)COc3ccccc3C)n2)cc1	i
NS(=O)(=O)c1ccc2c(c1)oc(=O)c1cc(S(N)(=O)=O)ccc12	i
Cc1cccn2cc(CNC(=O)c3ccc(Br)o3)nc12	i
COc1ccc(-c2cc(C(=O)NCCCN3CCOCC3)c3ccccc3n2)cc1OC	i

Not a retest: an excerpt of the list.
SMILES	CHT inh
NS(=O)(=O)c1ccc2c(c1)oc(=O)c1cc(S(N)(=O)=O)ccc12	i
Cc1cccn2cc(CNC(=O)c3ccc(Br)o3)nc12	i
COc1ccc(-c2cc(C(=O)NCCCN3CCOCC3)c3ccccc3n2)cc1OC	i

Source: PubChem BioAssay

This is a subset, and most or all hits are left out here.
